KCNQ2 inh – KCNQ2 potassium channel inhibitors, primary screen, cell-based, CHO-K1, FluxOR thallium flux, B-score (AID 2156). 20 min; stronger effect = lower value; only compounds with negative scores are shown here; some inactives read as strong as hits. actives 1.1% (n = 310,000). B-score at 10 µM. O88943;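 active = fluorescence ratio B-score at most minus 3 library SDs, with starting brightness B-score within 2 library SDs, cut at about -5.5 in these data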
Target sequence (O88943 whole entry, looked up): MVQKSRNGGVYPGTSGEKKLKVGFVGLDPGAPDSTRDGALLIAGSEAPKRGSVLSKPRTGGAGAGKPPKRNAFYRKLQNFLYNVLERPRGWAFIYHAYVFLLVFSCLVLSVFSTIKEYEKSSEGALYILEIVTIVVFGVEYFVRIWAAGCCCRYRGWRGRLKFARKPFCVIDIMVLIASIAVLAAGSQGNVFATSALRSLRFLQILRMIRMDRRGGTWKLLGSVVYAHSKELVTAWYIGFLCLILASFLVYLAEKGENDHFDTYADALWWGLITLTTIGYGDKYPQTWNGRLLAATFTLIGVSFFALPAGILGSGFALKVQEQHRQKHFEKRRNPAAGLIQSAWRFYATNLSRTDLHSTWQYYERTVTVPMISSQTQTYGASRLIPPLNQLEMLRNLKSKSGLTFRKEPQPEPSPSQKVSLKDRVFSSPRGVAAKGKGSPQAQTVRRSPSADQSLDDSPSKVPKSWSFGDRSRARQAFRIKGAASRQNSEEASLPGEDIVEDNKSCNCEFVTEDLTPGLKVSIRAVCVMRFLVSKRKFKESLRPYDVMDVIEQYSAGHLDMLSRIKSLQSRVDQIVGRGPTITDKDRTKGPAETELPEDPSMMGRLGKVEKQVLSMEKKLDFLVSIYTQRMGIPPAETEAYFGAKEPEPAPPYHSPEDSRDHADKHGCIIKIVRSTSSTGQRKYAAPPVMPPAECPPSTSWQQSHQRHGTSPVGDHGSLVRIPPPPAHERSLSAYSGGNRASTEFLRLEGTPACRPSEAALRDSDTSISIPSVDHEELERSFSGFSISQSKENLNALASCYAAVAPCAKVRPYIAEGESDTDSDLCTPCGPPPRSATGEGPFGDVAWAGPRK
KCNQ2 inh baseline – further read-out of KCNQ2 inh, marked with its call; B-score; measured here: initial fluorescence intensity artifact check;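 brightness before thallium and not channel activity; 0 = typical well and far values either way flag optical interference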
* marks the source's active call; other numbers are inactive results; i = inactive.

Every second line gives: KCNQ2 inh, KCNQ2 inh baseline
CC1CCc2c(sc(NC(=O)Cn3cnc([N+](=O)[O-])n3)c2C(N)=O)C1 (stereo not given)
    i, 0.9
COc1ccc2c(c1)c(CC(=O)Nc1nnc(C3CC3)s1)c(C)n2C(=O)c1ccc(Cl)cc1
    i, 0.37
CCC1Oc2ccc(C)cc2N(CC(=O)N(Cc2ccc3c(c2)OCO3)CC2CCCO2)C1=O (stereo not given)
    i, -0.12
COc1ccc(C(=O)Nn2c(CCC(=O)O)ccc2-c2ccc(C)cc2)cc1OC
    i, -0.87
Cc1cccc(CN2CCC(CNC(=O)CSc3cc(=O)n(C)c4cc(Cl)ccc34)CC2)c1
    i, -0.33
Cc1ccc(OCC(=O)Nc2ccccc2C(=O)N2CCCCC2)cc1
    i, -1.9
O=C(CN1C(=O)NC(c2ccccc2)(c2ccccc2)C1=O)Nc1cccnc1Cl
    i, -0.7
COC(=O)c1cccc(-n2nnnc2SCC(=O)Nc2nc3c(s2)CCCC3)c1
    i, -1
Cc1ccc(S(=O)(=O)N(C)CC(=O)NCc2ccncc2)cc1
    i, 0.18
Cc1cc(C)n(C(=O)c2cc3ccccc3c(=O)o2)n1
    i, 1.1
CC(NC(=O)Nc1ccccc1)C(c1cccs1)N1CCN(C)CC1 (stereo not given)
    i, -0.03
Cn1c(NCc2ccco2)nc2ccccc21
    i, 0.36
CCOC(=O)c1c(-c2cccc([N+](=O)[O-])c2)csc1NC(=O)C1CC1
    i, -3
O=C(CN1CCN(c2ccc(C(F)(F)F)cn2)CC1)NCc1ccc2c(c1)OCO2
    i, -0.24
CC(C)c1ccc(NC(=O)C2CCN(S(=O)(=O)c3ccc4c(c3)C(C)(C)C(=O)N4C)CC2)cc1
    i, 1.8
COC(=O)c1ccc(N2CCN(C)CC2)c(NC(=O)COc2ccccc2)c1
    i, -0.87
O=C(NCCS(=O)(=O)NCc1ccccc1Cl)c1ccccc1
    i, 0.46
Cc1ccc(S(=O)(=O)N/N=C/c2ccc3nccnc3c2)cc1
    i, -0.03
CC(C)CC(NC(=O)C1CCCN1C(=O)CNC(=O)OCc1ccccc1)C(=O)O (stereo not given)
    i, 0.36
COc1cc(NC(=O)C(C)Oc2ccccc2)c(OC)cc1NC(=O)c1ccccc1 (stereo not given)
    i, 1

Some of the entries above, reformatted:
| smiles | KCNQ2 inh | KCNQ2 inh baseline |
| --- | --- | --- |
| O=C(CN1C(=O)NC(c2ccccc2)(c2ccccc2)C1=O)Nc1cccnc1Cl | i | -0.7 |
| CCC1Oc2ccc(C)cc2N(CC(=O)N(Cc2ccc3c(c2)OCO3)CC2CCCO2)C1=O (stereo not given) | i | -0.12 |
| CC(C)c1ccc(NC(=O)C2CCN(S(=O)(=O)c3ccc4c(c3)C(C)(C)C(=O)N4C)CC2)cc1 | i | 1.8 |
| O=C(NCCS(=O)(=O)NCc1ccccc1Cl)c1ccccc1 | i | 0.46 |
| CC(C)CC(NC(=O)C1CCCN1C(=O)CNC(=O)OCc1ccccc1)C(=O)O (stereo not given) | i | 0.36 |
| Cc1cc(C)n(C(=O)c2cc3ccccc3c(=O)o2)n1 | i | 1.1 |
| COc1ccc(C(=O)Nn2c(CCC(=O)O)ccc2-c2ccc(C)cc2)cc1OC | i | -0.87 |

Later entries:
Every second line gives: KCNQ2 inh, KCNQ2 inh baseline
COc1ccc2[nH]c(C)c(CCN3C(=O)OC(C)(C)C3(C)O)c2c1 (stereo not given)
    i, 0.39
COc1ccc(N2C(=O)C3CCCN3C2c2cccc(Br)c2)cc1 (stereo not given)
    i, -0.53
CCOC(=O)CC(=O)Nc1ccc(C)cc1
    i, 0.17
Cc1cc(Cl)ccc1OCC(=O)Nc1ccc2oc(=O)ccc2c1
    i, -1
CC(C)OP(=O)(Nc1cccc2ccccc12)OC(C)C
    i, -0.4
COc1ccc(-c2nc(-c3cccs3)c(-c3cccs3)[nH]2)cc1O
    i, 0.05
CC(C)NC(=O)Cn1c(SCC(=O)N2CCc3ccccc3C2)nc2ccccc21
    i, -1.4
Cc1ccc2c(c1)N(CC(=O)OCC(=O)NCc1ccccc1)C(=O)CO2
    i, -1.8
Cc1nn2c(NCCN3CCOCC3)c3c(nc2c1-c1ccccc1)CCCC3
    i, -0.83
CC(NC(=O)COc1ccccc1Cl)c1ccccc1 (stereo not given)
    i, 1.1
O=C(NCc1ccccc1)/C(=C/c1cccc([N+](=O)[O-])c1)NC(=O)c1ccco1
    i, -1.4
CCS(=O)(=O)c1ccc2oc(SCC(=O)Nc3ccc(OC)cc3)nc2c1
    i, -0.46
CC1CCCCC1N(C)C1CCN(C(=O)CNC(=O)/C=C/c2cccc(Cl)c2)CC1 (stereo not given)
    i, -0.31
CCN(CC)S(=O)(=O)c1ccc(NC2c3ccccc3C(=O)N2Cc2ccco2)cc1 (stereo not given)
    i, 2
CC(C)COC(=O)NC1c2ccccc2Oc2ccccc21
    i, 0.06
COc1ccc(C(CNC(=O)c2ccc(S(=O)(=O)N(C)C)cc2)N(C)C)cc1 (stereo not given)
    i, -0.36
COc1ccc(NC(=O)/C(C#N)=C\c2ccc(OCc3ccc(C(=O)O)cc3)c(OC)c2)cc1
    i, -0.15
COc1ccc(OC)c(C(Nc2ccccc2)P(=O)(OC(C)C)OC(C)C)c1 (stereo not given)
    i, 0.86
CCOC(=O)C1CCN(Cc2c(F)cccc2Cl)CC1
    i, -2.4
CCOc1ccc(CCNC(=O)c2oc3c(c2C)-c2[nH]ncc2CC3)cc1OCC
    i, 1.2
CCOC(=O)c1nn(-c2ccc(Cl)cc2)c(=O)c(C#N)c1C
    i, 0.51
Cc1ccccc1Cn1ccc(-c2ccc(Cl)cc2)c(C#N)c1=O
    i, 4.1
COCCn1c(=O)[nH]c2cc(C(=O)N3CCN(c4ccccc4F)CC3)ccc2c1=O
    i, 0.38
Cc1ccnc(NC(=O)c2cccc([N+](=O)[O-])c2C)c1
    i, -1.9
CCCCCCSc1ccc([C@H]2N[C@@](CC(C)C)(C(=O)OC)[C@H]3C(=O)N(C)C(=O)[C@@H]23)cc1
    i, 2.5
CCOc1ccc2[nH]c(=O)c(CN(Cc3ccc(C)cc3)C(=O)N3CCCC3)cc2c1
    i, 0.94
COC(=O)c1nnn(-c2nonc2N)c1COc1ccc(C=O)cc1OC
    i, 0.68
Cc1cccn2c(=O)c3cc(C(=O)N4COCC4(C)C)sc3nc12
    i, 0.83
Cc1ccc(NC(=O)N2CCCC2C(=O)NCC2CCCO2)cc1 (stereo not given)
    i, 0.05
CCCCn1c(SCC(=O)NCc2ccco2)nc2c1c(=O)n(C)c(=O)n2C
    i, -0.01
COc1ccc(CC(C)CC(=O)NCCc2ccc(OC)c(OC)c2)cc1 (stereo not given)
    i, 0.43
COc1ccc(C)cc1N(C(=O)c1ccco1)C(C(=O)NC1CCCC1)c1cc(OC)c(OC)c(OC)c1 (stereo not given)
    i, 0.01
CC(C)N1C(=O)CN(C2CCCCCC2)C(=O)C1c1ccccc1F (stereo not given)
    i, 0.97
CCN1CCN(C(=O)CCN2C(=O)c3ccccc3S2(=O)=O)CC1
    i, 0.05
O=C(O)C1=C[C@H](C2CC2)C[C@H](OCc2ccc(CO)cc2)O1
    i, -0.14
COc1ccc([N+](=O)[O-])cc1/C=N/NC(=O)/C(=C\c1cccs1)NC(=O)c1ccccc1
    i, 0.09
Cc1cc(-c2n[nH]c(=S)n2-c2ccccc2C)cs1
    i, 0.98
O=C(COc1ccc(F)cc1)c1ccc2c(c1)CCCC2
    i, 5.4
COc1cccc(NC(=O)c2cc(-c3ccco3)nc3ccccc23)c1
    i, -3.6
CNC(=O)c1c(C)nc(SCC(=O)NCc2ccc(OC)cc2)c(C#N)c1-c1ccco1
    i, 0.02
O=S(=O)(c1ccc2c(c1)C(=NO)c1cc(S(=O)(=O)N3CCCCC3)ccc1-2)N1CCCCC1
    i, 0.87
O=S(=O)(Nc1ncnc2sc3c(c12)CCC3)c1cc(F)ccc1F
    i, 0.01
N#CCC(=O)NNC(=S)Nc1ccccc1C(F)(F)F
    i, 0.07
CCN(CC)C(=O)CSc1nnc(-c2ccccc2)n1-c1ccccc1
    i, 0.31
CC1CCCN(CCCNC(=O)c2cc3c(s2)-c2ccccc2OC3)C1 (stereo not given)
    i, -1.2
C=CCSc1nc(Oc2ccccc2)c2sccc2n1
    i, -0.77
Cc1cccc(N(CC(=O)Nc2ccc(F)cc2)S(C)(=O)=O)c1
    i, 0.45
Cc1ccc(C(CC(=O)NCc2ccco2)c2ccc(OC(C)C)cc2)cc1 (stereo not given)
    i, -0.68
C=CCNC(=O)c1ccccc1NS(=O)(=O)c1ccccc1
    i, -1.6
O=C(Nc1ncc(S(=O)(=O)c2ccc([N+](=O)[O-])cc2)s1)c1ccc2ccccc2c1
    i, -2.4

New compounds follow:
Every second line gives: KCNQ2 inh, KCNQ2 inh baseline
CCn1c(CC(=O)Nc2ccccc2)nnc1SCc1nc2ccccc2c(=O)[nH]1
    i, 0.24
COc1ccc(OC)c(S(=O)(=O)Nc2cccc(C(C)=O)c2)c1
    i, 0.15
Cc1nn(C)c(C)c1S(=O)(=O)N(CC(=O)N1CCc2ccccc2C1)c1ccc(C(C)C)cc1
    i, -1.6
O=C(N/C=N/OCc1ccc(Cl)cc1Cl)NOCc1ncc(C(F)(F)F)cc1Cl
    i, 2.1
COc1ccc(CC(=O)Nc2cccnc2)cc1
    i, -0.82
CCOC(=O)/C=c1\s/c(=C\c2ccccc2C)c(=O)n1CC(=O)NCc1ccc2c(c1)OCO2
    i, 0.71
O=C(NCc1ccc2c(c1)OCO2)C1CCCN(S(=O)(=O)c2cccc3cccnc23)C1 (stereo not given)
    i, -0.6
CCOC(=O)c1c(-c2ccc(F)cc2)cn2ccccc12
    i, 1.2
CCOc1ccc(-n2c(-c3ccco3)n[nH]c2=S)cc1
    i, 1.7
COCCNCC(=O)NCC12CC3CC(CC(C3)C1)C2
    i, -0.07
O=C(c1ccc(Br)cc1)N1CCCC(c2nc(-c3cccs3)no2)C1 (stereo not given)
    i, -0.02
COc1ccc2c(c1)n([O-])c1c([n+]2=O)CCC1
    i, -0.59
CS(=O)(=O)N1CCN(C(=O)c2csc3ccccc23)CC1
    i, -1.6
CCOC(=O)c1cc(-c2ccc(N3CCOCC3)cc2)nn1-c1ccccc1
    i, 0.06
CCCS(=O)(=O)N1CCN(C(=O)c2cccc(OC)c2)CC1
    i, 0.14
CC12CCCc3c(O)cc(=O)n(c31)-c1ccccc12 (stereo not given)
    i, -0.01
Cc1ccc(NC(=O)CCN2CCc3ccccc3C2)cc1
    i, 0.75
COc1ccc(CCn2c(N)c(C#N)c3nc4ccccc4nc32)cc1OC
    i, -0.12
CN1CCN(S(=O)(=O)c2cccc(C(=O)Nc3sc4c(c3C(N)=O)CCCC4)c2)CC1
    i, 0.08
CC(OC(=O)c1ccc(F)cc1)C(=O)Nc1nc(-c2cccc([N+](=O)[O-])c2)cs1 (stereo not given)
    i, -0.14
CC(C)(C)c1ccc(-n2ncc3c2CCCC3NC(=O)CN2CCCC2=O)cc1 (stereo not given)
    i, -1.1
COC(=O)Cn1c(-c2ccc(OC)cc2)c(-c2ccc(OC)cc2)nnc1=O
    i, -0.01
O=C(NCc1cccnc1)C(=O)NCC1OCCN1S(=O)(=O)c1cc(F)ccc1F (stereo not given)
    i, 0.23
O=[N+]([O-])c1cccc(NC(=S)N2CCN(c3ccccn3)CC2)c1
    i, 0.48
Cc1cc(C)c2c3c(sc2n1)C(=O)N(c1ccccc1)CC(=O)N3
    i, -1.8
Cc1ccc(C(C)C)c(OCCCn2ccnc2C)c1
    i, 2.1
CCn1c(SCc2ccc(C#N)cc2)nnc1-c1cccc(Cl)c1
    i, 0.55
COc1ccc(CCC(=O)NCCCNC(=O)CCc2ccc(OC)cc2)cc1
    i, 1.6
O=C(COc1ccc([N+](=O)[O-])cc1)NNC(=S)NC(=O)c1ccc(Br)cc1
    i, -0.19
Cn1c(SCCC#N)nnc1-c1ccccc1F
    i, -0.38

Retrieved one by one from the entries so far (two):
Every second line gives: KCNQ2 inh, KCNQ2 inh baseline
CC(C)(C)c1ccc(-n2ncc3c2CCCC3NC(=O)CN2CCCC2=O)cc1 (stereo not given)
    i, -1.1
O=C(COc1ccc([N+](=O)[O-])cc1)NNC(=S)NC(=O)c1ccc(Br)cc1
    i, -0.19

Carrying on:
Every second line gives: KCNQ2 inh, KCNQ2 inh baseline
NC(=S)Nc1nc2ccccc2[nH]c1=O
    i, 1.3
COc1ccc(/C=N/NC(=O)c2[nH]c3ccc(Br)cc3c2-c2ccccc2)c(C(=O)O)c1OC
    i, -1.3
Cc1cc(C)c(C(=O)c2ccc(C(=O)NC(C)(C)C)cc2)c(C)c1
    i, 0.97
CCOC(=O)N1CCN(C(=O)CCN2C(=O)/C(=C\c3cccc(OC)c3)SC2=S)CC1
    i, 0.04
CCN(CC)S(=O)(=O)c1cccc(S(=O)(=O)c2cccc(S(=O)(=O)N(CC)CC)c2)c1
    i, 1.4
O=C(COC(=O)c1cc(=O)[nH]c2ccccc12)Nc1cccc(S(=O)(=O)N2CCOCC2)c1
    i, 0.2
CCN(CC)S(=O)(=O)c1ccc2c(c1)oc(=O)n2CC(=O)NC1CCCCC1
    i, 0.68
CCOC(=O)C(C)Sc1nc2c(cnn2-c2ccc(C)cc2)c(=O)[nH]1 (stereo not given)
    i, 0.26
COc1ccc(CC(=O)N2CCC(Nc3nc4ccccc4n3Cc3ccc(F)cc3)CC2)cc1
    i, 1.3
COc1ccccc1N(CC(=O)NCCN1CCOCC1)S(=O)(=O)c1ccccc1
    i, 0.96
CCc1cccc(CC)c1NC(=O)COC(=O)c1ccccc1-c1nc2ccccc2s1
    i, -0.33
COc1ccc(CCNC(=O)C(=O)Nc2nccs2)cc1OC
    i, -0.07
O=C(Cc1ccc(-n2c(=O)[nH]c3ccccc3c2=O)cc1)N1CCN(c2cccc(Cl)c2)CC1
    i, 0.02
Cc1ccc(S(=O)(=O)Cc2cccc(C(=O)N3CCOCC3)c2)cc1
    i, 0.22

Screens: PubChem, Johns Hopkins Ion Channel Center

A portion of the library; count on the stated rates, not on these rows.
